# Compound activity (PubChem)
# Calb FLC – C. albicans growth inhibition with fluconazole, primary screen, CaCi-2 strain, Alamar Blue fluorescence; growth inhibition, % (concentration not given with the values); C. albicans CaCi-2 (fluconazole-resistant clinical isolate) + fluconazole, 48 h; hit rate 0.57% among 300,000; AID 1979, 2009;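 active means most replicates above 75%; inconclusive means exactly half above 75%; inactive means most below 75%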;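 further: all wells also contain fluconazole at 8 µg/ml as a sub-toxic cotreatment; 0% = median of DMSO wells and 100% = median of geldanamycin control wells; wells of about 8 µL received 7.5 nL stock; the first replicate is given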
# Beta apoptosis – inhibitors of cytokine-induced beta cell apoptosis, primary screen, luminescence. INS-1E cytokine-induced death, ATP luminescence, 48 h; percent of positive-control rescue, neutral wells zero. protection from apoptosis, % (concentration not given with the values). hit rate 0.8% among 300,000. AID 435005, 2010;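 active means all replicates at 75% or more, or half of them and the mean; inconclusive means half reach 75% but not the mean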;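 further: 0% = cytokine-treated negative control wells and 100% = positive control rescue; higher means more ATP so stronger rescue from cytokine killing; wells of about 40 µL received 100 nL stock; the first replicate is given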
# AF4-AF9 inh – inhibitors of AF4 peptide binding to AF9, primary screen, biochemical, AlphaScreen, biotin-AF4 peptide, FLAG-AF9, single point; Protein AF-9 (Homo sapiens), P42568; inhibition, % at 10 µM; AID 651704, 2012; hit rate 0.47% among 350,000;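 active means every replicate reaching a set inhibition limit, whatever the replicate mean, cut at about 25% in these data; inconclusive means mean inhibition reaches that limit but some replicates miss it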;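 further: 0% = plate neutral control median and 100% = total signal loss; the record names both 10 and 1 µM as test concentration; the first replicate is given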
# Target sequence (P42568 whole entry, looked up): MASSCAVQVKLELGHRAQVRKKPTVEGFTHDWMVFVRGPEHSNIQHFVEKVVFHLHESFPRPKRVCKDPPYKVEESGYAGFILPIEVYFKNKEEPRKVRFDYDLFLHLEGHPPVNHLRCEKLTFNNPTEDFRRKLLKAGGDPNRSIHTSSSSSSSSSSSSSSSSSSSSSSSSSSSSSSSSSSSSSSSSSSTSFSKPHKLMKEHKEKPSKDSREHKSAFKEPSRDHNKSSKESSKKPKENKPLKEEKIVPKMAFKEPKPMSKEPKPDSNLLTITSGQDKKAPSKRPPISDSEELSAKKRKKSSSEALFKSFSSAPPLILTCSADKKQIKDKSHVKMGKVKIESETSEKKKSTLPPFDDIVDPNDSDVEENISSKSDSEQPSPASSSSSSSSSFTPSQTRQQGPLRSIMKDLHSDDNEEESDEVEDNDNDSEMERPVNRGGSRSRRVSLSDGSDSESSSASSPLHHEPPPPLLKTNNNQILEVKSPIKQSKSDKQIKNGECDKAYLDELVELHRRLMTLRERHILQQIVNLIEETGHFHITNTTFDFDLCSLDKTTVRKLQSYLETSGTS
# Vif TR-FRET – inhibitors of Vif binding to APOBEC3G peptide, primary screen, biochemical, TR-FRET, GST-Vif 1-94, biotin-A3G peptide, dose response retest (AID 1117319); Virion infectivity factor (Human immunodeficiency virus type 1 group M subtype B (isolate …; TR-FRET GST-Vif / biotin-A3G peptide binding; higher % means a stronger effect; test concentration not given here; strong numbers were not always called active; one-dose inhibition, %; IC50 in µM for titrated hits; hit rate 0.57% among 260,000;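 active means above the screen mean plus three standard deviations and confirmed in dose response; inconclusive means results disagree or hit not tested in dose response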;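 further: Vif residues 1-94 fused to GST binding biotinylated APOBEC3G peptide 110-148; 0% = full assay without inhibitor and 100% = GST in place of GST-Vif; retest series ran down from 100 µM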
# Ecoli rRNA inh – reduced GFP signal of wild-type E. coli, primary screen, bacterial rRNA inhibitor project, GFP/RFP fluorescence, OD600, single point; hit rate 1.6% among 350,000; AID 720706, 2013; GFP signal change (wild-type ribosome), % (no concentration beside the values); E. coli WT GFP vs humanized-ribosome RFP mutants, 24 h; hits give low values; DMSO median 0, no signal -100;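 active means significant combined selectivity score with lowered wild-type GFP, culture density cut under 30%, mutant RFP and density less affected; inactive means any of these conditions unmet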; further: one replicate is shown; some compounds called inactive have numbers as strong as hits
# A1 inh – caspase 3/7 activation in MEF A1-2A-BIM cells, primary screen, A1 inhibitor project, cell-based, luminescence, HTS | Caspase-Glo 3/7 luminescence, 3 h; percent of clofoctol response, vehicle zero | caspase activation, % (test concentration not listed) | hit rate 0.066% among 330,000 | AID 2462, 2010;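 active means over half of replicate activation scores above 10%, or exactly half above 10 with the replicate mean above 10; inconclusive means replicate mean below 10 yet half the replicates above 10; inactive means over half of replicates below 10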;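 further: wells of about 30 µL received 50 nL stock; many hits fall short of the cut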
# T cruzi inh – inhibitors of intracellular T. cruzi growth, primary screen, luminescence, NIH3T3 host cells | AID 1885, 2009 | T. cruzi beta-gal in NIH3T3, 90 h | inhibition, % (test concentration not listed) | hit rate 1.4% among 300,000;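 active means mean inhibition across valid replicates above about 55%, limit read from the data; inconclusive means mean below that limit but half or more replicates reach it; inactive means mean below it, under half of replicates reach it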;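 further: signal also drops with host cell toxicity which is not excluded here; 0% = plate median of DMSO wells and 100% = zero luminescence signal; higher percent means less beta-gal luminescence so fewer parasites; stock transfer was 50 nL into about 50 µL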
# RanGTP-Imp inh – inhibitors of RanGTP-importin-beta interaction, primary screen, biochemical, FRET, CFP-Ran, YFP-importin-beta, homogeneous. hit rate 1.1% among 300,000. inhibition, % (concentration not given with the values). Ran GTPase (GTP-bound) - importin-beta complex. cell-free CFP-Ran/YFP-importin-beta FRET ratio;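 active means most replicates above 15%; inconclusive means exactly half above 15%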;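 further: 0% = DMSO wells and 100% = Ran loaded with GDP instead of GTP; wells of about 40 µL received 100 nL stock; the first replicate is given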
# Ecoli rRNA inh OD600 – further read-out of Ecoli rRNA inh, marked with its call; OD600 change, %; measured here: OD600 growth;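 optical density of the mix in the first replicate; 0 = DMSO median and -100 = no signal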
# Ecoli rRNA inh RFP – further read-out of Ecoli rRNA inh, marked with its call; RFP signal change, %; measured here: RFP humanized mutant strains;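 first replicate; 0 = DMSO median and -100 = no signal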
# An asterisk follows results filed as active; ? = inconclusive; . = not tested or not shown; & = joins results of further samples. Some of the compounds tested. The share of hits here may be higher or lower than overall.
SMILES,Calb FLC,Beta apoptosis,AF4-AF9 inh,Vif TR-FRET,Ecoli rRNA inh,Ecoli rRNA inh OD600,Ecoli rRNA inh RFP,A1 inh,T cruzi inh,RanGTP-Imp inh
Cc1ccc(C2OCC3(CO2)COC(c2ccc(C)cc2)OC3)cc1 (centres undefined),-4,-2,4.4,.,8,-10,0.2,0.2,-19,0.3
Cc1ccc(C(=O)N/C(=C\c2ccc(-c3ccc([N+](=O)[O-])cc3)o2)C(=O)NC2CCS(=O)(=O)C2)cc1 (centres undefined),0,-5,-2.5,7%,.,.,.,-0.4,12,-71
Cc1ccc2nc(Cl)c3cc(C(=O)N(CCN(C)C)Cc4ccco4)sc3c2c1,11,-1,13,.,-16,-28,5.5,1.0,56*,7.6
CCOc1cc(CNc2ccc(Br)cc2)cc(Br)c1OCC(=O)NC(C)(C)C,19,19,-5.3,-1%,1,-8,0.0,1.1,66*,-3.6
CN(Cc1nc2ccccc2[nH]1)C(=O)C1CCC(=O)N(CCc2cccc(F)c2)C1 (centres undefined),-6,-7,0.0,.,-1,-3,2.3,1.0,-12,-3.9
CS(=O)(=O)N(CC(=O)N1CCCC1)c1cccc(Cl)c1Cl,7,1,-30,-4%,8,3,-1.8,0.2,-10,-1.9
CCCCNC(=O)CCSc1nc2nc(C)cc(C)n2n1,-4,-6,-0.6,3%,16,5,2.7,-0.2,2,3.2
O=C(O)c1ccc2c3c(cccc13)C(=O)N(c1cccc3ccccc13)C2=O,-4,-1,-3.5,2%,0,-16,-3.0,1.0,-26,1.7
CC(=O)Nc1nnc(SCC(=O)N2CCN(Cc3ccccc3)CC2)s1,-6,-1,.,8%,.,.,.,0.9,-2,0.1
O=C(/C=C/c1ccco1)c1ccccc1O,2,-4,-0.1,?,10,-2,-1.3,-1.5,-9,2.4
COc1ccc(-n2nc(C(=O)NCC(=O)N3CCN(Cc4ccccc4)CC3)c3ccccc3c2=O)c(OC)c1,30,-1,-0.1,.,4,8,1.5,0.8,-1,6.3
Cc1cc(C)cc(N(CC(=O)N2CCN(c3ccccc3)CC2)S(=O)(=O)c2c(C)noc2C)c1,8,.,-0.9,-7%,-6,-17,8.4,0.2,5,-0.3
CSc1nc(C)cc(OCCO)n1,5,-8,.,2%,12,17,-0.5,1.4,-2,-3.3
CN1CCN(NC(=O)c2cccc(C(F)(F)F)c2)CC1,-7,-8,-6.9,32%,13,8,-1.7,0.3,9,2.5
COc1cccc(C(=O)NC2CCSC2=O)c1 (centres undefined),-12,-5,.,5%,.,.,.,-0.6,-14,-1.8

# The final 2 compounds of the part before come first, to join the parts.
SMILES,Calb FLC,Beta apoptosis,AF4-AF9 inh,Vif TR-FRET,Ecoli rRNA inh,Ecoli rRNA inh OD600,Ecoli rRNA inh RFP,A1 inh,T cruzi inh,RanGTP-Imp inh
CN1CCN(NC(=O)c2cccc(C(F)(F)F)c2)CC1,-7,-8,-6.9,32%,13,8,-1.7,0.3,9,2.5
COc1cccc(C(=O)NC2CCSC2=O)c1 (centres undefined),-12,-5,.,5%,.,.,.,-0.6,-14,-1.8
COc1ccc(N2CCN(C(=O)COc3ncnc4ccccc34)CC2)cc1,-12,4,1.4,13%,1,11,0.5,2.6,-13,0.4
COc1cccc(-c2nc(CS(=O)CC(=O)NC3CCCCC3)c(C)o2)c1 (centres undefined),2,-1,-4.1,.,6,-4,2.1,0.4,11,-5.0
COC(=O)c1ccc(SCC(=O)NCc2ccccc2)c([N+](=O)[O-])c1,2,4,-1.1,1%,-1,11,-0.2,-0.7,5,-2.7
Cc1ccc(-n2ccnc(SCC(=O)NC3CCCC3)c2=O)cc1Cl,-2,-22,-2.1,3%,3,4,0.6,0.9,-13,1.4
CN(C(=O)c1ccccn1)c1nnc(-c2cnccn2)s1,2,6,.,?,.,.,.,-1.1,3,5.7
CC12COC3(C(=O)Nc4ccc(Cl)cn4)CC1CCC32C (centres undefined),-10,-6,.,1%,.,.,.,1.9,11,-3.6
CN(c1ccccc1)S(=O)(=O)c1cccc(NC(=O)c2cccc(C#N)c2)c1,.,8,-2.6,-8%,-13,-30,2.1,-1.0,.,.
O=S(=O)(c1ccccc1)N1CCN=C1SCc1ccccc1,?,-4,-3.9,-1%,-31,-29,-3.3,0.6,33,1.2
Cc1ccc2nc(-c3ccc(NC(=O)C4CCCO4)cc3)[nH]c2c1 (centres undefined),16,11,.,1%,.,.,.,-7.7,-22,0.9
CCCOc1ccc(C(C)=O)cc1Cc1c(O)nc(SC)[nH]c1=O,-1,-7,0.6,2%,4,4,-0.4,0.1,-16,4.4
O=C(CCn1c(=O)c2sccc2n(CC(=O)NCc2ccco2)c1=O)NCc1ccccc1,-5,-7,.,-7%&-6%,.,.,.,-0.2,2,3.5
CSc1ccccc1NC(=O)CNCCCN1CCOCC1,0,1,4.4,10%,9,4,-3.4,0.6,-5,-1.3
O=C(Nc1cccc(-c2cccc(Cl)c2)c1)C1CCN(Cc2ccccn2)CC1,30,-8,4.0,.,-58,-81,-17,0.7,1,-0.8
CCOC(=O)c1[nH]c(Cc2[nH]c(C(=O)OCC)c(C)c2CCC(=O)OC)c(CCC(=O)OC)c1C,1,.,.,-6%&-6%,.,.,.,1.2,25,7.3
COc1cc(OC)c2ccc(=O)oc2c1C(CCN1CCN(c2ccccc2)CC1)c1ccc(N(C)C)cc1 (centres undefined),-11,-2,26*,.,16,7,15,0.1,-15,-7.6
CCCn1c(=O)c(C(=O)NNC(=O)c2ccccc2Cl)c(O)c2ccccc21,?,-1,2.0,.,4,8,-0.2,0.3,2,0.6
Cc1ccc(CNC(=O)C2CCN(C(=O)c3cccc(Cl)c3)CC2)cc1,4,2,-0.2,.,14,13,-1.2,0.8,-4,-1.7
CC(C)NC(=O)N(C)C[C@H]1Oc2c(NS(=O)(=O)c3cccs3)cccc2C(=O)N([C@H](C)CO)C[C@@H]1C,.,-10,-4.3,.,2&15,8&9,-3.1&2.8,0.9,.,.
COC(=O)C1=CNC=C(C(=O)OC)C1c1cccc2ccccc12,9,-1,-2.2,.,-4,-1,4.4,0.6,-2,0.3
COC(=O)COC(=O)c1ccc(-n2nnnc2SC)cc1,3,5,.,-3%,.,.,.,0.1,-15,-3.8
CCN(CC)CCNC(=O)NC1CCCCC1,28,-6,.,-2%,.,.,.,0.4,-18,1.4
COc1ccc(OC)c(N=C2SCCCN2C(=O)c2ccc(N3C(=O)CCC3=O)cc2)c1,.,-4,1.5,.,11,14,-0.3,0.1,-3,3.6
CC(C)c1onc(C(=O)NC2CCCCC2)c1[N+](=O)[O-],8,-5,1.3,.,10,8,0.3,0.5,-26,?
CCc1ccccc1N(C(=O)c1snc(C(N)=O)c1N)C(C(=O)NCC1CCCO1)c1ccc(C)o1 (centres undefined),6,-7,-0.9,6%,29,21,2.8,0.4,4,2.5
CCn1c(SCC(=O)NCC(=O)Nc2ccc(F)cc2)nnc1-c1cccs1,10,.,.,-1%,.,.,.,0.5,-12,-1.1
Cc1ccc(NC(=O)COC(=O)/C(=C/c2cccs2)c2cccs2)cc1S(=O)(=O)N(C)C,27,.,-1.0,10%,-4,-16,-1.9,-0.2,13,-0.4
Nc1c(N(CCC2=CCCCC2)C(=O)c2ccccc2F)c(=O)[nH]c(=O)n1Cc1ccccc1,.,-3,-1.7,-1%,6,13,2.2,-0.4,.,.
CCS(=O)(=O)NCc1cn2c(C)csc2n1,-7,-4,.,-3%,.,.,.,1.1,-5,-2.7
O=C(Nc1nc2c(s1)CCCC2)c1nn(Cc2ccccc2)c(=O)c2ccccc12,-2,19,1.4,-3%,11,11,1.2,-1.2,45,4.9
O=C(CNC(=O)c1ccc2c(c1)OCCO2)N/N=C/c1ccco1,0,-8,-1.0,-8%,11,5,-1.5,0.4,-21,2.2
C=CCn1c(N)cc(=O)nc1SCC(=O)N(c1ccccc1)c1ccccc1,14,3,-1.8,.,-1,-1,-4.8,1.5,-5,-2.2
COc1ccc(OC)c(NC2c3ncccc3C(=O)N2Cc2ccco2)c1 (centres undefined),7,.,11,18%,4,2,-5.3,.,2,-0.8
CCc1noc(C)c1C(=O)Nc1nc2c(C)cc(C)cc2s1,8,14,-24,4%,-17,-15,2.0,0.4,15,4.8
COc1ccccc1NC(=O)C1(c2ccccc2)CCCC1,-16,.,-3.0,4%,-55,-52,-25,1.6,-12,1.2
COc1cccc(-c2cc(C(=O)NC3CCCCC3)no2)c1,-5,7,-1.1,7%,3,7,2.5,-2.4,0,1.2
O=C(CSc1ncnc2ccccc12)c1cccs1,-3,-10,-1.1,-14%,-11,-12,-2.9,-2.0,1,1.3
CCCCn1cc2c(c1-c1cccc(C)c1)c(=O)n(C)c(=O)n2C,1,1,.,-10%,-7,4,-1.1,0.5,-7,?
O=c1[nH]nc(-c2ccc(F)cc2)cc1-c1ccccc1,-7,-1,3.1,1%,4,8,-2.4,-0.7,-2,0.1
COc1ccccc1NC(=S)NNC(=O)c1ccncc1,-4,1,0.4,3%,7,6,-0.8,-0.1,-17,.
Oc1ccc2ccccc2c1CNn1cnnc1,-4,-1,.,18%,-2,-5,1.8,0.9,-22,3.2
Cc1c(C(=O)OCC(=O)NC2CCCCC2)oc2ccccc12,.,1,-3.0,-5%,13,15,1.9,-0.6,.,.
COc1ccccc1NC(=O)CN1CCN(CC(=O)Nc2ccc(F)cc2F)CC1,8,.,4.3,-3%,10,14,-0.4,.,2,-1.1
O=C(NN1C(=O)C2C3C=CC(C4CC34)C2C1=O)c1cccc(Br)c1 (centres undefined),3,2,0.4,-4%,-25*,-10*,0.8*,0.4,9,?
O=C(CSc1ncnc2c1cnn2-c1ccc(F)cc1)NCC1CCCO1 (centres undefined),4,1,0.1,.,-2,0,1.4,-7.3,-2,1.0
NC(=O)COc1ccc(/C=N/NC(=O)C2CCCN2S(=O)(=O)c2ccc(Cl)cc2)cc1 (centres undefined),5,2,.,6%,.,.,.,-0.6,-13,3.3
CCCCn1c(-c2ccc([N+](=O)[O-])cc2)n[nH]c1=S,-1,-10,.,0%,.,.,.,0.3,-9,-0.4
